High-throughput results: PubChem BioAssay, National Center for Advancing Translational Sciences (NCATS)
VDR inhibitor: blocks the human vitamin D receptor. 400,000 compounds, 0.93% hits. P11473. Potency, µM, inactives show max response, negative = inhibition, actives largely listed as inhibitors. VDR-SRC2-3 peptide fluorescence polarization, 2 h; active means well fitted inhibition curve with a large enough effect; inconclusive means small, poorly fitted or top-dose-only effect, or another doubt; inactive means no such curve, though single readings can be large or run the other way; further: series mostly up to about 120 µM
Target sequence (P11473 whole entry, looked up): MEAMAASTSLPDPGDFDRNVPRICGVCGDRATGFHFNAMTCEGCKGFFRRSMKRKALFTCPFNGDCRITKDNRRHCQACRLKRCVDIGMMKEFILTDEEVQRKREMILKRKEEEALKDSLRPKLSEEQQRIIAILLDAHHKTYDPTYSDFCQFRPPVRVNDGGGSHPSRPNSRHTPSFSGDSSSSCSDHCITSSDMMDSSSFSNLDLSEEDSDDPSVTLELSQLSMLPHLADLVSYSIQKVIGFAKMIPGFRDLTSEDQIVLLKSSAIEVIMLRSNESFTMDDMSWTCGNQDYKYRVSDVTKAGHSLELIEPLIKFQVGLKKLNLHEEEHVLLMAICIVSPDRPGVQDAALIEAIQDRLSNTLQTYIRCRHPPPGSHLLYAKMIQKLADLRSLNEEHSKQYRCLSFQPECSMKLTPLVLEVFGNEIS
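Reagent solutions, kept cold and dark, are dispensed first; compounds are then pinned in at 23 nl, plates briefly spun, and incubated 2 h at ambient temperature. Inhibition of VDR–SRC2-3 peptide binding is read by fluorescence polarization.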
Numbers without * were called inactive; ? = inconclusive; & = joins results of further samples. On the % scale 0 is the no-effect control and ±100 the full control effect; potency means the concentration at half of the fitted maximal effect. This is a subset; rates above refer to the full screens.

SMILES	VDR inhibitor
O=C(NCC12CC3CC(C1)CC(CNC(=O)N1CCCC1)(C3)C2)N1CCCC1	20%
CC(=O)NCCc1ccc(S(=O)(=O)NC2OC(=O)c3ccccc32)cc1 (stereo unspecified)	-15%
Cn1c(CNC(=O)c2ccco2)nnc1SCC(=O)c1ccc(F)cc1	1%
CC(=O)Nc1ccc2c(COC(=O)[C@@H](NS(=O)(=O)c3ccc(C)cc3)C(C)C)cc(=O)oc2c1	9%
COc1ccccc1NS(=O)(=O)c1ccc(C(=O)NCC(c2ccco2)N2CCCCC2)cc1 (stereo unspecified)	19%
O=C(NC(=S)Nc1ccccc1Cl)c1cncc(Br)c1	-1%
O=C(COC(=O)COc1ccc2ccccc2c1)NCC(F)(F)F	15%
O=C(NNc1ccccc1F)c1cccs1	?
COC(=O)Cn1c(CN2CCOCC2)nc2c1c(=O)n(C)c(=O)n2C	-12%
C/C(=N\NC(N)=O)C1(C)CCCCC1	14%
COc1cnc(N(C)C)nc1Sc1ccc(Cl)cc1	-16%
COc1ccc(NC(NC(=O)c2cccnc2)C(Cl)(Cl)Cl)cc1 (stereo unspecified)	9%
Cc1nn(CCCC(=O)NCc2ccco2)c(=O)c2nn(-c3ccccc3)c(C)c12	-7%
Cc1c(C#N)c2ccccc2n1CC(=O)NCC1CCCO1 (stereo unspecified)	22%
Cc1ccc2c(c1)N(C(=O)CSc1nncn1C)C(C)(C)c1ssc(=S)c1-2	1%
COc1ccccc1NC(=O)Cn1c(=O)n(-c2ccccc2Cl)c(=O)c2sc3ccccc3c21	-5%
CCCN(C(=O)c1cc2ccc3cccnc3c2[nH]1)c1ccc(F)cc1	7%
COc1ccc(CCNC(=O)Cn2nc(-c3ccc(Cl)cc3)ccc2=O)cc1OC	-12%
Cc1cccc(C)c1Nc1nnc(SCC(=O)NCc2cccs2)s1	-18%
CCc1cc(=O)oc2cc(C)cc(OC(C)C(=O)O)c12 (stereo unspecified)	12%
CCOC(=O)Cc1c(C)nc(Cc2ccc(OC(C)C)cc2)[nH]c1=O	-15%
CC(C)Cc1nnc(NC(=O)c2cc(-c3ccccc3)nc3ccccc23)s1	?
CCCn1nc(C(=O)OCC(=O)Nc2ncc(Cl)c(C)c2Cl)c2ccccc2c1=O	-28%
CN(C)CCOC(=O)COc1ccc(Cl)cc1	-1%&-9%&6%&0%
CCOc1ccc(NC(=S)N(CCCN2CCOCC2)Cc2cn(C)c3ccccc23)cc1	-4%
Cc1ccc(-c2nc3ccccc3s2)cc1NC(=S)NC(=O)c1cccc2ccccc12	-9%
COc1cc(C(=O)NCc2ccc3c(c2)OCO3)c([N+](=O)[O-])cc1OC	-21%
O=C(Nc1ccccc1F)c1ccco1	-2%
Cc1ccc(CNC(=O)CSc2ncc3c(n2)-c2cc(Cl)ccc2N(C)S3(=O)=O)cc1	1%
NS(=O)(=O)c1ccc(CCNC(=O)CN2CCN(c3cccc(Cl)c3)CC2)cc1	-8%
COc1ccc2[nH]c(=O)c(CN(C(=O)c3cccnc3)c3ccccc3OC)cc2c1	-2%
CCOC(=O)C1CCN(C(=O)Cc2c(C(=O)O)n(CC)c3ccccc23)CC1	10%
O=C(Cn1cnc2ccccc2c1=O)NCCC(=O)Nc1ccccc1C(F)(F)F	6%
O=S(=O)(c1ccc2nc(Nc3cccc(F)c3)ccc2c1)N1CCCC1	24%
CC(=O)Nc1ccc(S(=O)(=O)N2CCCN(S(=O)(=O)c3ccc(C)cc3)CC2)cc1	-1%
Cc1ccsc1C(=O)N1CCCC(CCC(=O)NCc2ccccc2F)C1 (stereo unspecified)	-17%
CNc1oc(-c2ccccc2)nc1C#N	4%
CCOC(=O)C1=C(C)OC(N)=C(C#N)C1c1ccc(O)c(OC)c1 (stereo unspecified)	-4%
CCc1ccc(C(C(=O)NC2CCCC2)N(C(=O)/C=C/C(=O)Nc2cc(C)on2)c2ccccc2C)cc1 (stereo unspecified)	6%
COc1ccc2c(c1)CCc1c(C(=O)Nc3c(C)nn(Cc4ccc(C)cc4)c3C)noc1-2	-15%
N#Cc1ccsc1NC(=O)CN1CCN(c2ccccn2)CC1	-4%
O=C(NCC1COCCO1)c1ccc(OC2CCN(CCc3ccccc3)CC2)cc1 (stereo unspecified)	-1%
CC12CCCC(CC(=O)O)(C1)NC(=O)C2 (stereo unspecified)	-1%
O=C(COC(=O)c1ccc(Cl)cc1O)Nc1cccnc1Cl	2%
CN(Cc1ccccc1)c1ccc(C(CC(N)=O)NC(=O)c2ccccc2)cc1[N+](=O)[O-] (stereo unspecified)	-15%
CC/C(=N\O)c1c(O)c2c(n(-c3ccccc3)c1=O)CCCC2	-14%
COc1ccc(OC)c(S(=O)(=O)N2CCN(Cc3ccccc3)CC2)c1	-6%
Clc1ccc(OCCCc2nc(-c3ccncc3)no2)c(Cl)c1	-7%
Nc1nnc(SCC(=O)Nc2cccc(S(=O)(=O)N3CCOCC3)c2)s1	-13%
Cc1ccccc1C(=O)Nc1ccc(C(=O)N/N=C/c2ccccn2)cc1	-18%

The results go on.
SMILES	VDR inhibitor
COc1cc2ccccc2cc1C(=O)N/N=C/c1cccnc1	7%
CC1CCc2c(sc(NC(=O)COc3ccccc3)c2C(=O)Nc2ccccc2Cl)C1 (stereo unspecified)	11%
Cc1cc(C)c(S(=O)(=O)Nc2ccc3[nH]c(=O)[nH]c3c2)c(C)c1	-8%
COc1ccc(-c2cc(C(C)=O)c(C)n2CCC(=O)Nc2cc(C)ccc2OC)cc1	10%
O=C(CN1C(=O)NC2(CCCC2)C1=O)Nc1ccc(OC(F)(F)F)cc1	-21%
CCCCOC(=O)c1ccc(Nc2ncnc3c2cnn3-c2cccc(C)c2)cc1	5%
COc1ccc(Br)cc1C1CC(=O)N2CN(Cc3ccccc3)CSC2=C1C#N (stereo unspecified)	71µM*
O=C(O/N=C(\c1ccccc1)c1ccccn1)c1cccc2ccccc12	0%
Cc1ccc(NC(CNS(=O)(=O)c2ccc(Cl)cc2)c2ccccc2)cc1 (stereo unspecified)	3%&5%
Cc1ccccc1SCC(=O)OCC(=O)NCCNC(=O)COC(=O)CSc1ccccc1C	-10%
CCOC(=O)c1ccc(N2CCN(c3ccccc3F)CC2)c(NC(=O)Nc2cccc(OC)c2)c1	-26%
COc1ccc(NC(=O)NNC(=O)c2cc3ccccc3cc2O)cc1	16%
CCn1c(=O)c2sccc2n2c(CCCC(=O)N3CCN(c4ccccc4OC)CC3)nnc12	-6%
COC(=O)C(CCSC)NC(=O)c1cc2c(n(-c3ccccc3)c1=O)CC(C)(C)CC2=O (stereo unspecified)	-29%&2%
CC(C)c1ccc(NC(=O)CN2C(=O)COc3ccc(S(=O)(=O)Nc4ccccc4)cc32)cc1	14%
COc1ccccc1-n1c(SCC(=O)Nc2cc(C)on2)nc2c(c1=O)SCC2	10%
O=C(O)C(C(=O)Oc1ccccc1)C(C(=O)O)C(=O)Oc1ccccc1 (stereo unspecified)	?
COc1cccc(CN2CCN(CCc3ccccc3)C(CCO)C2)c1OC (stereo unspecified)	17%
CCCNC(=O)c1ccc(N2CCC3(CC2)CC(c2cccc(Br)c2)=NO3)c(NC(=O)c2ccccc2)c1	-3%
Cc1ccc(C(=O)N/C(=C\c2cccs2)C(=O)NCCc2ccccn2)cc1C	-8%
CC(C)OCCCNC(=O)c1ccncc1	-3%
CCOC(=O)c1cnn(Cc2ccc(C)cc2)c1N	-1%
CC(C)(C)C(O)(CC#CCN1CCCC1)c1ccccc1 (stereo unspecified)	-3%
COc1ccc(CCNc2ncnc3c2c(-c2ccccc2)cn3-c2ccc(F)cc2)cc1OC	-7%
Cc1ccc(S(=O)(=O)N(C)c2ccc(OCC(=O)OCc3cccc(Br)c3)cc2)cc1	-19%
COc1ccc(Cl)cc1N1CC(c2nc3ccccc3[nH]2)CC1=O (stereo unspecified)	8%
O=S(=O)(c1ccc(OCC(O)CN2CCC(Cc3ccccc3)CC2)cc1)N1CCOCC1 (stereo unspecified)	-7%
COc1cc(OC)nc(Oc2ccccc2C(=O)Oc2ccc(Cl)cc2)n1	?
CN(CC(=O)Nc1ccc(F)c(F)c1F)C(=O)C1=COCCO1	-2%
Cc1cnc(C(=O)OCC(=O)N2CCC(C)CC2)cn1	-21%

Printed as active in VDR inhibitor (from the list above):
SMILES	VDR inhibitor
COc1ccc(Br)cc1C1CC(=O)N2CN(Cc3ccccc3)CSC2=C1C#N (stereo unspecified)	71µM*

New compounds follow:
SMILES	VDR inhibitor
COc1ccc(N2CCN(Cc3nc4c(c(=O)n(C)c(=O)n4C)n3C(C)C)CC2)cc1	14%
Cc1cc(SCC(=O)OCC(=O)c2c(N)n(C)c(=O)n(C)c2=O)c(C)cc1Br	-9%
O=C(COc1ccc(F)cc1)Nc1ccc2nc(SCC(=O)N3CCOCC3)sc2c1	7%
Cc1[nH][nH]c(=O)c1C	0%
Cc1ccccc1NC(=S)NC1(C)CCS(=O)(=O)C1 (stereo unspecified)	-6%
Cc1ccc(C)c(Cn2c3ccccc3c3cnn(CC(=O)NCC(C)c4ccccc4)c(=O)c32)c1 (stereo unspecified)	6%
Cc1cc(NC(=O)CN2C(=O)NC(C)(CCc3ccccc3)C2=O)no1 (stereo unspecified)	3%
CCC(C(=O)Nc1ccccc1Cl)n1nc(C)c2c(C)n(-c3ccccc3)nc2c1=O (stereo unspecified)	-10%
COc1ccccc1C(CNC(=O)c1cccc(S(=O)(=O)Nc2ccc(C)cc2)c1)N(C)C (stereo unspecified)	13%
O=C(COc1ccc2c3c(c(=O)oc2c1)CCC3)Nc1ccc(CN2CCOCC2)cc1	-1%
CCC(C(=O)NC1CCCCCC1)n1nc(C)n2c(cc3occc32)c1=O (stereo unspecified)	-11%
CC(=O)NC(CCCCNC(=S)NC1CCCCC1)C(=O)O (stereo unspecified)	10%
CC1CCc2cc(F)ccc2N1C(=O)CSc1nnc2c(n1)[nH]c1ccccc12 (stereo unspecified)	8%
CCOc1ccc(/C=N/NC(=O)c2[nH]ncc2Br)c(O)c1	9%
COc1cccc(NC(=O)N2CCCC(C(=O)NC3CCCCC3C)C2)c1 (stereo unspecified)	5%
CC(=O)c1ccc(NS(=O)(=O)c2ccc(N/C=C/C(=O)c3ccc(F)cc3)cc2)cc1	-25%
O=C(O)c1ccc(/C=N/NC(=O)c2cc(-c3ccc4c5c(cccc35)CC4)n[nH]2)cc1	-3%
Cc1ccc(CSc2nc(-c3cccs3)ccc2C#N)cc1	-19%
COc1cccc(NC(=O)c2oc3ccccc3c2NC(=O)C23CC4CC(CC(C4)C2)C3)c1	-9%
C=CCOC[C@@H]1CN2[C@H](c3ccc(Br)cc3)[C@@H](C)CC[C@H]2C(=O)O1	-1%
O=C(COc1ccccc1F)NNC(=O)c1ccc(N2CCCCC2)c([N+](=O)[O-])c1	-19%
C[C@@H]([C@H](O)c1ccccc1)N(C)C(=S)Nc1ccccc1	-6%
O=C(CN(Cc1cccs1)C(=O)CSc1nnc(COc2ccccc2)o1)NC1CCCCC1	10%
CCN(CC)C(=S)SCC(=O)c1ccc(F)cc1	3%
COc1cccc(OC)c1OCC(O)CN1CCN(c2ccc(F)cc2)CC1 (stereo unspecified)	-3%
CCOC(=O)c1c(S(=O)(=O)NCC(=O)Nc2cc(C)ccc2OC)c(C)n(C)c1C	-6%&13%
COc1ccc(-c2ncc(CN3CCC(CO)(Cc4cccc(OC)c4)CC3)cn2)cc1	-15%
CCC(=O)Nc1nc(=S)ss1	45µM*
O=C(NCCCN1CCN(Cc2ccccc2)CC1)c1nnc(Cc2c(F)cccc2Cl)o1	6%
COC(=O)C1=CNC=C(C(=O)OC)C1c1ccc(Cl)cc1	18%

2 compounds picked at random from those above:
SMILES	VDR inhibitor
CCC(=O)Nc1nc(=S)ss1	45µM*
O=C(CN(Cc1cccs1)C(=O)CSc1nnc(COc2ccccc2)o1)NC1CCCCC1	10%

The main list resumes; the 4 compounds before the break are reprinted first.
SMILES	VDR inhibitor
COc1ccc(-c2ncc(CN3CCC(CO)(Cc4cccc(OC)c4)CC3)cn2)cc1	-15%
CCC(=O)Nc1nc(=S)ss1	45µM*
O=C(NCCCN1CCN(Cc2ccccc2)CC1)c1nnc(Cc2c(F)cccc2Cl)o1	6%
COC(=O)C1=CNC=C(C(=O)OC)C1c1ccc(Cl)cc1	18%
CC(OC(=O)CN(C)S(=O)(=O)c1ccc(Cl)cc1)C(=O)Nc1ncc(Cl)cc1Cl (stereo unspecified)	10%
CCOC(=O)c1ccc(N2C(=O)c3n[nH]c(C)c3C2c2ccc(OC)cc2OC)cc1 (stereo unspecified)	-4%
CCC(C)Cn1c(S(=O)(=O)O)nc2ccccc21 (stereo unspecified)	16%
Cc1cc2ncc(C(N)=O)cn2n1	11%
CCc1cccc(CC)c1NC(=O)COC(=O)CC1c2ccccc2CCN1S(=O)(=O)c1ccccc1 (stereo unspecified)	1%
COc1ccc(C(C)(C)C)cc1NC(=O)C1CC(=O)N(C2CCCC2)C1 (stereo unspecified)	-10%
CS(=O)(=O)N1CCN(c2ccnc3cc(Cl)ccc23)CC1	9%
O=C(NCc1cccc(C(F)(F)F)c1)c1ccc2c(c1)OCCO2	7%
CCC1=NC(c2ccc(OC)cc2)N(O)C1(C)C (stereo unspecified)	8%
COc1ccc(CNS(=O)(=O)NCc2ccc(C)cc2)cc1	3%
CC(=O)Nc1ccc(S(=O)(=O)N2CCCN(S(=O)(=O)c3ccc(NC(C)=O)cc3)CC2)cc1	3%

Ordered by SMILES length (smallest number first): part of the list above
SMILES	VDR inhibitor
Cc1cc2ncc(C(N)=O)cn2n1	11%
CCC1=NC(c2ccc(OC)cc2)N(O)C1(C)C (stereo unspecified)	8%
CS(=O)(=O)N1CCN(c2ccnc3cc(Cl)ccc23)CC1	9%
